From PubChem BioAssay
MLL AF4-AF9 inh: blocks AF4 peptide binding to human AF9 | P42568 | AlphaScreen, biotin-AF4 peptide binding to FLAG-AF9 | inhibition, % at 10 µM | 350,000 tested, 0.47% active | AID 651704;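 active = every replicate reaching a set inhibition limit, whatever the replicate mean, cut at about 25% in these data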;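 note: 0% = plate neutral control median and 100% = total signal loss; the record names both 10 and 1 µM as test concentration; the first replicate is given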
Target sequence (P42568 whole entry, looked up): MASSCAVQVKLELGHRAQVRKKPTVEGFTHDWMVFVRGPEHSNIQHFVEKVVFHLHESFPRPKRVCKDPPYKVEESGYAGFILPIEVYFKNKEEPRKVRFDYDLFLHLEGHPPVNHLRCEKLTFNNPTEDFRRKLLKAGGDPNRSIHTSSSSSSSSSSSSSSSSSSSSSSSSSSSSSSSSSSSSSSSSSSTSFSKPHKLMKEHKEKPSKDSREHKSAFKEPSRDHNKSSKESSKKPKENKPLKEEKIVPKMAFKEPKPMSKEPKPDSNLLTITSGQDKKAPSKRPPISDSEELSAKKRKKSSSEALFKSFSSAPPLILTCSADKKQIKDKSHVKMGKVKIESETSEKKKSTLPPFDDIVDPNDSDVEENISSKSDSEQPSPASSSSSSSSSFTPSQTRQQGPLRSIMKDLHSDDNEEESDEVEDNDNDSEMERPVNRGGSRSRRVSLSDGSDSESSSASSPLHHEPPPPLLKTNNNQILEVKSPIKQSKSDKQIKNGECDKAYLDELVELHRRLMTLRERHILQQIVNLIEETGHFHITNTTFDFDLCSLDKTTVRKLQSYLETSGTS
FGF22 binding: binders of recombinant human FGF22 by thermal shift. Q9HCT0. SYPRO orange fluorescence; percent of sucrose octasulfate shift, DMSO zero. calls only at 9.99 µM. 340,000 tested, 1.5% active. AID 651658;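 active = melting point raised past a set limit in the mean and every replicate; three in four hits are not shown here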
Target sequence (Q9HCT0 whole entry, looked up): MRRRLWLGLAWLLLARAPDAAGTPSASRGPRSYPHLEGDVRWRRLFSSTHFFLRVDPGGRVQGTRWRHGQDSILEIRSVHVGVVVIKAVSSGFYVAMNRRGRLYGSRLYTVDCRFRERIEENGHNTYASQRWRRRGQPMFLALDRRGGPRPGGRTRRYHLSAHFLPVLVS
Active calls of the source: *; i = inactive; . = not tested or not shown; + = active, no number.

SMILES	MLL AF4-AF9 inh	FGF22 binding
COc1ccccc1CNC(=O)C[C@H]1CC[C@H]2[C@@H](COC[C@@H](O)CN2C(=O)Nc2ccc(C(F)(F)F)cc2)O1	0.0	i
C[C@@H]1CN([C@@H](C)CO)C(=O)c2cc(C#CC3CCCCC3)cnc2O[C@H]1CN(C)S(=O)(=O)c1cccc(F)c1	0.6	i
C[C@H]1CN([C@@H](C)CO)C(=O)c2cccc(NC(=O)Nc3cccc4ccccc34)c2O[C@H]1CN(C)Cc1ccc(C(=O)O)cc1	2.3	i
CCC(=O)N1CCCCN2[C@H](CO)[C@@H](c3ccc(/C=C/c4ccccc4)cc3)[C@@H]2C1	2.2	i
CN1C(=O)c2cc(NC(=O)c3ccc(F)c(F)c3)ccc2OC[C@H]2O[C@H](CC(=O)N3CCOCC3)CC[C@H]21	-2.1	i
CN(C)CCCNC(=O)C[C@@H]1C=C[C@@H](NS(=O)(=O)c2ccc(F)cc2)[C@@H](CO)O1	-1.4	i
C[C@H]1CN([C@@H](C)CO)C(=O)c2cc(NC(=O)Cn3cnnn3)ccc2O[C@@H]1CN(C)Cc1ccc(Oc2ccccc2)cc1	6.5	i
C[C@@H]1CCCCO[C@H](CN(C)C(=O)Nc2ccc(C(F)(F)F)cc2)[C@H](C)CN([C@H](C)CO)C(=O)c2cc(NC(=O)CCC(F)(F)F)ccc2O1	-2.4	i
C[C@H]1CN([C@@H](C)CO)C(=O)c2cc(NC(=O)c3ccncc3)ccc2O[C@H]1CN(C)Cc1ccc(Oc2ccccc2)cc1	9.0	i
CN1c2ccc(-c3ccc(F)cc3)cc2[C@H]2[C@H](CCN2C(=O)C2CCOCC2)[C@H]1CO	4.8	i
CCCC#Cc1cnc2c(c1)C(=O)N([C@H](C)CO)C[C@@H](C)[C@@H](CN(C)C(=O)NCCC)O2	-6.2	i
COC(=O)C[C@@H]1CC[C@H]2[C@@H](COC[C@@H](O)CN2S(=O)(=O)c2ccc(F)cc2)O1	0.9	i
COc1ccc(NC(=O)N2C[C@H](O)COC[C@H]3O[C@@H](CC(=O)NCc4ccccc4OC)CC[C@@H]32)cc1	-0.2	i
C[C@H](CO)N1C[C@H](C)[C@@H](CN(C)C(=O)c2ccccc2F)Oc2ncc(-c3cccnc3)cc2C1=O	-0.2	i
C[C@@H]1CN([C@H](C)CO)C(=O)c2cc(NC(=O)Nc3ccc4c(c3)OCO4)ccc2O[C@H]1CN(C)S(=O)(=O)c1cn(C)cn1	-2.7	i
CCN1[C@@H]2c3ccc(C4=CCCC4)c(=O)n3C[C@@H]2[C@@H](CO)[C@@H]1C(=O)NCc1cccc(OC)c1	-0.5	i
O=C(NCc1ccccc1)[C@H]1[C@H](CO)[C@H]2Cn3c(ccc(/C=C/c4ccccc4)c3=O)[C@@H]1N2CC1CC1	-56	i
C[C@H]1CN([C@@H](C)CO)C(=O)c2cc(C#CC3CCCCC3)cnc2O[C@@H]1CN(C)Cc1cccnc1	6.1	i
Cc1ccccc1S(=O)(=O)N1C[C@@H](O)COC[C@@H]2O[C@H](CC(=O)N3CCCCC3)CC[C@H]21	-0.2	i
C[C@@H]1CN([C@H](C)CO)C(=O)Cc2cc(NC(=O)C3CCCCC3)ccc2O[C@H]1CN(C)S(=O)(=O)c1ccccc1	-2.9	i
C[C@@H]1CN([C@@H](C)CO)S(=O)(=O)c2ccc(C#CC(C)(C)O)cc2O[C@@H]1CN(C)C(=O)CC1CC1	-3.5	i
COC(=O)c1cc2c(c3c4cc(OC)ccc4n(S(=O)(=O)c4ccc(OC)cc4)c13)C(=O)N(C)C2	-4.0	.
CC(C)NC(=O)Nc1ccc2c(c1)C(=O)N([C@H](C)CO)C[C@H](C)[C@H](CN(C)S(=O)(=O)c1cccs1)OCCCC[C@H](C)O2	0.0	i
C[C@@H]1CN([C@H](C)CO)C(=O)Cc2cc(NS(=O)(=O)c3ccccc3)ccc2O[C@H]1CN(C)Cc1ccccc1	-2.1	i
C[C@@H](NC(=O)C[C@H]1CC[C@H](NC(=O)Nc2ccc3c(c2)OCO3)[C@H](CO)O1)c1ccccc1	-0.3	i

(continued)
SMILES	MLL AF4-AF9 inh	FGF22 binding
Cc1noc(C)c1S(=O)(=O)Nc1cccc2c1O[C@H](CN(C)Cc1ccc(C(F)(F)F)cc1)[C@H](C)CN([C@H](C)CO)C2=O	-0.4	i
COc1ccc(S(=O)(=O)N2CCCCN3[C@@H](CO)[C@H](c4ccc(C#CC5CC5)cc4)[C@@H]3C2)cc1	13	i
C[C@@H]1CN([C@H](C)CO)C(=O)c2cc(NC(=O)Nc3ccc(C(F)(F)F)cc3)ccc2O[C@@H](C)CCCCO[C@@H]1CN(C)C(=O)c1ccccc1	3.8	i
C[C@@H]1CN([C@H](C)CO)C(=O)c2cc(NS(C)(=O)=O)ccc2O[C@H]1CN(C)Cc1ccccc1	-0.3	i
CN(C)CCCNC(=O)C[C@H]1CC[C@@H](NC(=O)Cc2cccnc2)[C@@H](CO)O1	-1.1	i
C[C@@H]1CN([C@H](C)CO)S(=O)(=O)c2ccc(C3=CCCCC3)cc2O[C@H]1CN(C)S(C)(=O)=O	1.7	i
O=C(NC1CCCCC1)N[C@H]1CC[C@H](CCNS(=O)(=O)c2ccc(F)cc2)O[C@H]1CO	2.2	i
CO[C@H](CN(C)S(=O)(=O)c1ccc(C)cc1)[C@@H](C)CN([C@@H](C)CO)S(=O)(=O)c1cccc(Cl)c1	0.7	i
C[C@H](CO)N1C[C@H](C)[C@H](CN(C)CC2CCCCC2)OCCCC[C@H](C)Oc2ccc(NC(=O)Nc3cccc4ccccc34)cc2C1=O	6.5	i
COc1ccc(S(=O)(=O)N(C)C[C@H]2Oc3ccc(NC(=O)C4CCCCC4)cc3CC(=O)N([C@H](C)CO)C[C@@H]2C)cc1	-0.9	i
CO[C@H]1CN(C)C(=O)c2ccc(NC(=O)c3ccccc3F)cc2OC[C@H](C)N(CC2CC2)C[C@H]1C	-1.5	i
C[C@H]1CN([C@@H](C)CO)C(=O)c2cc(C3=CCCC3)cnc2O[C@H]1CN(C)C(=O)c1ccccc1	-1.1	i
Cc1ccc(S(=O)(=O)N(C)C[C@H]2OCCCC[C@H](C)Oc3ccc(NC(=O)NC4CCCCC4)cc3C(=O)N([C@H](C)CO)C[C@H]2C)cc1	-6.1	i
C[C@@H]1CCCCO[C@H](CN(C)Cc2ccc(C(F)(F)F)cc2)[C@@H](C)CN([C@H](C)CO)C(=O)c2cc(NC(=O)Nc3ccc4c(c3)OCO4)ccc2O1	-3.7	i
C[C@H](CO)N1C[C@H](C)[C@H](CN(C)C)Oc2c(NS(=O)(=O)c3ccc(F)cc3)cccc2C1=O	-1.6	i
C[C@@H]1CN([C@@H](C)CO)S(=O)(=O)c2ccc(-c3ccc(C(=O)N(C)C)cc3)cc2O[C@H]1CN(C)C(=O)C1CCCCC1	9.1	i
COC(=O)[C@@]1(Cc2ccccc2)COC(c2ccc(OCCCO)cc2)=N1	1.1	i
Cc1noc(C)c1S(=O)(=O)N(C)C[C@H]1OCCCC[C@H](C)Oc2ccc(NC(=O)C3CCCCC3)cc2C(=O)N([C@H](C)CO)C[C@@H]1C	2.0	i
CC(C)NC(=O)N1CCCCN2[C@H](CO)[C@@H](c3ccc(C#C[C@H](C)O)cc3)[C@@H]2C1	-6.3	i
C[C@@H]1CN([C@H](C)CO)C(=O)c2cccc(NC(=O)C3CCCCC3)c2O[C@H]1CN(C)CC1CCCCC1	-0.1	i
COc1ccc(NC(=O)N(C)C[C@@H]2Oc3ccc(NS(=O)(=O)c4ccc(Cl)cc4)cc3CC(=O)N([C@@H](C)CO)C[C@H]2C)cc1	0.2	i
COc1ccc(C[C@@H]2CCn3cc(nn3)COC[C@H](CC(C)C)NC2=O)cc1	-1.1	i
Cc1noc(C)c1S(=O)(=O)N(C)C[C@H]1OCCCC[C@H](C)Oc2ccc(NS(=O)(=O)c3cccs3)cc2C(=O)N([C@H](C)CO)C[C@@H]1C	2.9	i
C[C@H]1CN([C@@H](C)CO)S(=O)(=O)c2ccc(C3=CCCCC3)cc2O[C@H]1CN(C)Cc1cccnc1	14	i
N#C[C@H]1[C@@H](c2ccc(C#CC3(O)CCCC3)cc2)[C@@H](CO)N1C(=O)C1CCC1	-0.3	i

Next results follow.
SMILES	MLL AF4-AF9 inh	FGF22 binding
COc1ccc(CN(C)C[C@H]2Oc3c(NC(=O)Nc4ccc(OC)cc4)cccc3C(=O)N([C@H](C)CO)C[C@H]2C)cc1	2.1	i
O=C(c1ccccc1)N1CC2(C1)[C@H](c1ccccc1)[C@@H](CO)N2Cc1cccnc1	2.0	i
C[C@@H]1CCCCO[C@H](CN(C)CC2CCCCC2)[C@H](C)CN([C@@H](C)CO)C(=O)c2cc(NC(=O)Nc3ccc(C(F)(F)F)cc3)ccc2O1	-3.4	i
CC(C)NC(=O)N(C)C[C@@H]1OCCCC[C@@H](C)Oc2ccc(NC(=O)CCC(F)(F)F)cc2C(=O)N([C@H](C)CO)C[C@@H]1C	-1.9	i
C[C@@H]1CCCCO[C@@H](CN(C)C(=O)CCC(F)(F)F)[C@@H](C)CN([C@H](C)CO)C(=O)c2cc(NS(=O)(=O)c3cn(C)cn3)ccc2O1	-3.8	i
COCC(=O)N[C@@H]1CC[C@@H](CC(=O)NCc2ccc(Cl)cc2)O[C@H]1CO	-0.1	i
COc1ccc2c3c(n(C)c2c1)[C@@H](CO)N(C(=O)CC1CC1)CC31CCN(Cc2ccncc2)CC1	1.9	i
CC(C)NC(=O)N(C)C[C@H]1Oc2cc(C#C[C@@H](C)O)ccc2S(=O)(=O)N([C@H](C)CO)C[C@@H]1C	-3.9	i
COc1ccc(NC(=O)N(C)C[C@H]2OCCCC[C@@H](C)Oc3ccc(NS(=O)(=O)c4ccccc4)cc3C(=O)N([C@H](C)CO)C[C@H]2C)cc1	-1.5	i
CC(C)NC(=O)N(C)C[C@H]1Oc2c(NS(=O)(=O)c3ccc(F)cc3)cccc2C(=O)N([C@@H](C)CO)C[C@@H]1C	-1.6	i
C#CCN1CC(COc2ccccc2)Oc2cccc(Oc3ccc(OC)cc3)c2S1(=O)=O (configuration not stated)	1.7	i
CNC(=O)C[C@@H]1CC[C@@H]2[C@H](COC[C@H](O)CN2C(=O)Nc2cccc(OC)c2)O1	-0.4	i
COc1ccc(NC(=O)N(C)C[C@@H]2Oc3ccc(NS(=O)(=O)c4cccs4)cc3C(=O)N([C@@H](C)CO)C[C@H]2C)cc1	-5.3	i
C[C@H]1CN([C@@H](C)CO)C(=O)c2cc(-c3ccc(C#N)cc3)cnc2O[C@@H]1CN(C)Cc1cccnc1	-6.2	i
Cc1ccc(S(=O)(=O)NCC[C@H]2CC[C@H](NS(=O)(=O)c3ccccc3Cl)[C@H](CO)O2)cc1	1.0	i
CNC[C@H]1Oc2c(NS(=O)(=O)c3cn(C)cn3)cccc2C(=O)N([C@@H](C)CO)C[C@@H]1C	-2.8	i
C[C@H]1CCCCO[C@@H](CN(C)C(=O)NC2CCCCC2)[C@@H](C)CN([C@@H](C)CO)C(=O)c2cc(NC(=O)C3CCCCC3)ccc2O1	-4.4	i
CN(C)C(=O)[C@@H]1[C@@H](CO)[C@@H]2Cn3c(ccc(-c4cccnc4)c3=O)[C@@H]2N1Cc1ccccc1F	-10	i
Cc1ccc(-c2ccc([C@@H]3[C@H](CO)N4CCCCN(C(=O)c5ccc(F)cc5)C[C@@H]34)cc2)cc1	11	i
C[C@H]1CN([C@@H](C)CO)C(=O)c2cccc(NC(=O)CCCCCC(=O)Nc3ccccc3N)c2O[C@@H]1CN(C)Cc1ccc(Cl)c(Cl)c1	-1.4	i
C[C@H]1CN([C@@H](C)CO)C(=O)Cc2cc(NC(=O)Cn3cnnn3)ccc2O[C@@H]1CN(C)C(=O)Nc1ccc(C(F)(F)F)cc1	-1.1	i
O=C(C[C@H]1CC[C@H]2[C@@H](COC[C@@H](O)CN2S(=O)(=O)c2cccc(Cl)c2)O1)N1CCOCC1	-1.4	i
O=C(N[C@@H]1CC[C@H](CC(=O)N2CCN(c3ccccc3)CC2)O[C@@H]1CO)c1ccccc1	-0.2	+
C[C@H](CO)N1C[C@H](C)[C@@H](CN(C)C(=O)Nc2ccccc2)OCc2ccccc2-c2c(n(C)c3ccccc23)C1=O	1.5	i
O=C(C[C@H]1CC[C@@H]2[C@H](COC[C@@H](O)CN2Cc2ccc(Oc3ccccc3)cc2)O1)N1CCOCC1	1.0	i

An excerpt from above in order of count of non-hydrogen atoms, low to high:
SMILES	MLL AF4-AF9 inh	FGF22 binding
O=C(c1ccccc1)N1CC2(C1)[C@H](c1ccccc1)[C@@H](CO)N2Cc1cccnc1	2.0	i
O=C(N[C@@H]1CC[C@H](CC(=O)N2CCN(c3ccccc3)CC2)O[C@@H]1CO)c1ccccc1	-0.2	+
Cc1ccc(-c2ccc([C@@H]3[C@H](CO)N4CCCCN(C(=O)c5ccc(F)cc5)C[C@@H]34)cc2)cc1	11	i
O=C(C[C@H]1CC[C@@H]2[C@H](COC[C@@H](O)CN2Cc2ccc(Oc3ccccc3)cc2)O1)N1CCOCC1	1.0	i
COc1ccc(NC(=O)N(C)C[C@@H]2Oc3ccc(NS(=O)(=O)c4cccs4)cc3C(=O)N([C@@H](C)CO)C[C@H]2C)cc1	-5.3	i
CC(C)NC(=O)N(C)C[C@@H]1OCCCC[C@@H](C)Oc2ccc(NC(=O)CCC(F)(F)F)cc2C(=O)N([C@H](C)CO)C[C@@H]1C	-1.9	i
C[C@H]1CN([C@@H](C)CO)C(=O)Cc2cc(NC(=O)Cn3cnnn3)ccc2O[C@@H]1CN(C)C(=O)Nc1ccc(C(F)(F)F)cc1	-1.1	i
C[C@@H]1CCCCO[C@@H](CN(C)C(=O)CCC(F)(F)F)[C@@H](C)CN([C@H](C)CO)C(=O)c2cc(NS(=O)(=O)c3cn(C)cn3)ccc2O1	-3.8	i
C[C@H]1CN([C@@H](C)CO)C(=O)c2cccc(NC(=O)CCCCCC(=O)Nc3ccccc3N)c2O[C@@H]1CN(C)Cc1ccc(Cl)c(Cl)c1	-1.4	i
C[C@@H]1CCCCO[C@H](CN(C)CC2CCCCC2)[C@H](C)CN([C@@H](C)CO)C(=O)c2cc(NC(=O)Nc3ccc(C(F)(F)F)cc3)ccc2O1	-3.4	i

The list is partial, so the mix of outcomes need not match the whole.
